# HIV Env fusion: blocks HIV Env-driven cell-cell fusion | HeLa-JRFL Env/CEM21 cell fusion, luciferase | inhibition, % at 12.3 µM | AID 651610 | 360,000 tested, 1.1% active;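 active means mean replicate inhibition score of at least 50 and every replicate individually at or above 50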;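 further: 0% = plate neutral controls and 100% = maraviroc near 300 nM; one replicate is shown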
# eIF4H FP inh: inhibitors of RNA binding by human eIF4H | Q15056 | eIF4H fluorescence polarization binding assay | inhibition, % at 35 µM | 290,000 tested, 0.94% active;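 active means 50% or more with normal probe brightness, or confirmed in later tests; about a fifth of its hits are not listed in these tables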;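 further: calls also rest on retests at 20 µM and on dose response follow-up; 0% = protein and probe with vehicle and 100% = probe without protein; strong numbers were not always called active; many hits fall short of the cut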
# MT1-MMP act inh: MT1-MMP (human) activation inhibition; HT1080 RFP-PRO-GFP cells, GFP/RFP ratio fluorescence, overnight; percent of plate control window, DMSO zero; AID 651647; GFP/RFP ratio change, % at 20 µM; P50281; 360,000 tested, 0.061% active;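 active means GFP/RFP ratio change of at least 30% with cell ATP level not reduced by more than half and red fluorescence within 50% of control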; further: strong numbers were not always called active
#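 Assay system: HT1080 RFP-PRO-GFP cells | Dosing: 20 µM single dose, 1% DMSO | Incubation: Cells overnight before dosing, compound overnight, 37 °C, 5% CO2 | Evaluation: GFP/RFP fluorescence ratio | Control set: DMSO-only wells and HT1080 RFP-L50D-GFP cell wells as references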
# CSC inhib: blocks cancer stem cells; inhibition, % at 7.5 µM; cancer stem cell-like cells viability, luminescence; 300,000 tested, 1.1% active;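 active means mean at 75% or more and at least half the replicates too; tested in HMLE shEcad cells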;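 further: 0% = median of negative and 100% = median of positive control wells; the first replicate is given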
# UUG fidelity: alters start codon recognition fidelity in yeast; S. cerevisiae UUG-firefly luciferase reporter, luminescence/redox ratio; activity score, % at 18.7 µM; 350,000 tested, 0.13% active;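 active means replicate mean at a twofold rise or more, about +100% in these data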;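 further: firefly luciferase made from a UUG start codon reports start codon fidelity; reporter light over untreated wells divided by growth signal over untreated wells; some hits fall short of that in this replicate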
# Rce1 inh: inhibitors of yeast Ras-converting enzyme; yeast membranes, quenched prenylated peptide cleavage fluorescence; calls only; 290,000 tested, 0.27% active;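 active means fall in fluorescence gain of 50% or more versus controls, with final raw signal at or below 3038400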;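 further: plate controls were neutral control wells for no effect and wells lacking membranes for full effect; tested at 10 µM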
# PABP polyA inh: PABP-poly(A) binding inhibition; inhibition, % at 35 µM; AID 2014; PABP-poly(A) RNA binding, fluorescence polarization; 290,000 tested, 1% active;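 active means 50% or more with normal probe brightness, or confirmed in later tests; about a fifth of its hits are not listed in these tables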;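 further: calls also rest on retests at 20 µM and on dose response follow-up; controls were probe without protein and protein plus probe with vehicle; some compounds called inactive have numbers as strong as hits; many hits fall short of the cut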
# Target sequence (P11940 whole entry, looked up): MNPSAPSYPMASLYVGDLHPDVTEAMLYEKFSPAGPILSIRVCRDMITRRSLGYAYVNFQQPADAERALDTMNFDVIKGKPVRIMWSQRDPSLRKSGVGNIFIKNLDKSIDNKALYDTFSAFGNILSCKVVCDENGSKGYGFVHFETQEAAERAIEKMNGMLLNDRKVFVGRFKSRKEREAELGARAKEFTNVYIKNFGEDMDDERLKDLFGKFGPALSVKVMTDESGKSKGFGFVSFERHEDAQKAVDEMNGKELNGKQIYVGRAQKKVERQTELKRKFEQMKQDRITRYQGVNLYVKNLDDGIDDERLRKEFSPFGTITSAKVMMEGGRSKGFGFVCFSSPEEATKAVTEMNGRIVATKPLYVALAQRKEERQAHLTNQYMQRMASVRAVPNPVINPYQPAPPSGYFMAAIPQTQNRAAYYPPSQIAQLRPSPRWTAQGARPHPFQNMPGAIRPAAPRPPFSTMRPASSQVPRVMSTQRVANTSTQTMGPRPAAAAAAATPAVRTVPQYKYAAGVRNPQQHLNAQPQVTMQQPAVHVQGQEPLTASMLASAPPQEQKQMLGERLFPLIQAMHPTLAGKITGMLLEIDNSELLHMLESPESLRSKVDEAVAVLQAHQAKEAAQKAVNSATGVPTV
# eIF4H FP inh retest: second read-out of eIF4H FP inh, no call of its own (marks repeat the call); inhibition, %; compound at 20 µM; confirmation average;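 mean of two retest wells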
# PABP polyA inh retest: further read-out of PABP polyA inh, marked with its call; inhibition, %; compound at 20 µM; confirmation repeats;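 mean of two retest wells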
# MT1-MMP act inh RFP: second read-out of MT1-MMP act inh, no call of its own (marks repeat the call); RFP signal change, %; measured here: RFP expression control read;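 0 = vehicle wells; hits needed this value within 50% of zero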
# * marks the source's active call; other numbers are inactive results; i = inactive; / = no result given. Not a hit list; 2.9% or so of the library scored in one or more.
# A first look:
SMILES,HIV Env fusion,eIF4H FP inh,MT1-MMP act inh,MT1-MMP act inh RFP,CSC inhib,UUG fidelity,Rce1 inh,PABP polyA inh,others
Cc1ccc(OCc2nc(C#N)c(NCc3ccco3)o2)cc1,-2,0,-3,-4,/,3,i,3,
O=C(Cn1ccsc1=NC(=O)C(F)(F)F)c1ccccc1,/,-1,1,-1,6,-13,i,0,
Cc1nc(SCc2nc3c(O)cccc3[nH]2)c2oc3ccccc3c2n1,-45,/,8,-1,/,-18,/,/,
Cc1nc(N2CCN(S(=O)(=O)c3cccc4nonc34)CC2)c2c3c(sc2n1)CCCC3,-30,-14,-7,-10,/,-13,i,-14,
CCC(C)NC(=O)Cn1ccc2cc(S(=O)(=O)N3CCCCCC3)ccc21 (stereo unspecified),-8,-7,-2,-4,-5,-34,i,0,
COc1ccc(N2C(=O)CSC2c2cccs2)cc1 (stereo unspecified),8,4,-2,3,-1,/,i,118,eIF4H FP inh retest=38;PABP polyA inh retest=37
O=C(NCc1ccc(N2CCCC2=O)cc1)c1cccc(Cl)c1,4,3,2,-3,-7,2,i,1,
COc1ccc(OCCCC(=O)N2CCCc3ccccc32)cc1,/,-3,-5,-4,/,-8,i,12,
COc1cc2ccccc2cc1C(=O)Nc1ccc(Br)cn1,-111,3,1,2,2,-10,i,3,
COc1cc(OC)nc(NC2OC(=O)c3ccccc32)n1 (stereo unspecified),-6,4,4,5,-8,-10,i,2,
O=C(NC1=NCCS1)c1ccc(OCC2CCCO2)cc1 (stereo unspecified),-11,-4,-1,5,6,-35,i,0,
O=C1C(c2ccc(F)cc2)N(Cc2ccc3c(c2)OCO3)C(=O)CN1C1CCCC1 (stereo unspecified),-33,-6,1,-3,-3,/,i,-11,
CC1(C)CC(=O)C=C(c2ccc(COC(=O)/C=C/c3ccccc3)cc2)C1=O,3,/,-1,1,/,-10,/,/,
COCC(C)n1c(C)cc(C(=O)COC(=O)c2ccc3c(c2)NC(=O)CS3)c1C (stereo unspecified),25,43,1,2,9,3,i,-2,
Cc1ccccc1-n1c(SCC(=O)NC2CC2)nc2ccccc2c1=O,-25,/,3,0,/,4,/,/,
Cc1ccc(NC(=O)c2cc(=O)c3ccccc3o2)cc1S(=O)(=O)N1CCOCC1,2,-7,-4,-3,-7,/,i,7,
O=C(Nc1cccc(S(=O)(=O)Nc2ccc(SC(F)F)cc2)c1)C1CCC1,2,/,4,-16,12,-9,/,/,
COc1cccc(OC)c1C(=O)Nc1ccc(S(=O)(=O)N2CCCCC2)cc1,-11,-1,3,1,8,-8,/,16,
O=C(c1cccc(C(F)(F)F)c1)N1CCCC1,/,-11,0,5,-11,/,i,-2,

# The listing (from the top)
SMILES,HIV Env fusion,eIF4H FP inh,MT1-MMP act inh,MT1-MMP act inh RFP,CSC inhib,UUG fidelity,Rce1 inh,PABP polyA inh,others
Cc1ccc(OCc2nc(C#N)c(NCc3ccco3)o2)cc1,-2,0,-3,-4,/,3,i,3,
O=C(Cn1ccsc1=NC(=O)C(F)(F)F)c1ccccc1,/,-1,1,-1,6,-13,i,0,
Cc1nc(SCc2nc3c(O)cccc3[nH]2)c2oc3ccccc3c2n1,-45,/,8,-1,/,-18,/,/,
Cc1nc(N2CCN(S(=O)(=O)c3cccc4nonc34)CC2)c2c3c(sc2n1)CCCC3,-30,-14,-7,-10,/,-13,i,-14,
CCC(C)NC(=O)Cn1ccc2cc(S(=O)(=O)N3CCCCCC3)ccc21 (stereo unspecified),-8,-7,-2,-4,-5,-34,i,0,
COc1ccc(N2C(=O)CSC2c2cccs2)cc1 (stereo unspecified),8,4,-2,3,-1,/,i,118,eIF4H FP inh retest=38;PABP polyA inh retest=37
O=C(NCc1ccc(N2CCCC2=O)cc1)c1cccc(Cl)c1,4,3,2,-3,-7,2,i,1,
COc1ccc(OCCCC(=O)N2CCCc3ccccc32)cc1,/,-3,-5,-4,/,-8,i,12,
COc1cc2ccccc2cc1C(=O)Nc1ccc(Br)cn1,-111,3,1,2,2,-10,i,3,
COc1cc(OC)nc(NC2OC(=O)c3ccccc32)n1 (stereo unspecified),-6,4,4,5,-8,-10,i,2,
O=C(NC1=NCCS1)c1ccc(OCC2CCCO2)cc1 (stereo unspecified),-11,-4,-1,5,6,-35,i,0,
O=C1C(c2ccc(F)cc2)N(Cc2ccc3c(c2)OCO3)C(=O)CN1C1CCCC1 (stereo unspecified),-33,-6,1,-3,-3,/,i,-11,
CC1(C)CC(=O)C=C(c2ccc(COC(=O)/C=C/c3ccccc3)cc2)C1=O,3,/,-1,1,/,-10,/,/,
COCC(C)n1c(C)cc(C(=O)COC(=O)c2ccc3c(c2)NC(=O)CS3)c1C (stereo unspecified),25,43,1,2,9,3,i,-2,
Cc1ccccc1-n1c(SCC(=O)NC2CC2)nc2ccccc2c1=O,-25,/,3,0,/,4,/,/,
Cc1ccc(NC(=O)c2cc(=O)c3ccccc3o2)cc1S(=O)(=O)N1CCOCC1,2,-7,-4,-3,-7,/,i,7,
O=C(Nc1cccc(S(=O)(=O)Nc2ccc(SC(F)F)cc2)c1)C1CCC1,2,/,4,-16,12,-9,/,/,
COc1cccc(OC)c1C(=O)Nc1ccc(S(=O)(=O)N2CCCCC2)cc1,-11,-1,3,1,8,-8,/,16,
O=C(c1cccc(C(F)(F)F)c1)N1CCCC1,/,-11,0,5,-11,/,i,-2,
COc1ccc2[nH]c(=O)cc(C(=O)O)c2c1,-2,46,-4,2,-5,/,i,16,
CC(C)[C@H](NC(=O)c1ccccc1)C(=O)OCC(=O)N1CC2(C)CC1CC(C)(C)C2 (stereo partly specified),23,7,0,11,23,/,i,-1,
CC(C)(C)c1ccc(C(=O)c2c[nH]c(C(=O)O)c2)cc1,-62,-4,0,1,-3,/,i,-13,
CNC(=O)c1[nH]cnc1C(=O)NCC(=O)OC(C)(C)C,-33,2,0,0,-18,-16,i,-5,
O=C(NCCN1CCOCC1)c1cc(-c2cccs2)on1,-361,-5,13,7,21,-25,i,-7,
CCN(CC)c1ccc(/C=N/N2CCN(Cc3ccc(C)cc3)CC2)c(O)c1,/,-7,1,-4,42,-13,i,3,
COc1cc(-c2nc(-c3ccccc3)c(-c3cc([N+](=O)[O-])ccc3C)[nH]2)cc(OC)c1OC,/,-8,-3,-17,38,-6,i,6,
CCOC(=O)c1sc2nc(SCC#N)n(CC3CCCO3)c(=O)c2c1C (stereo unspecified),21,-6,-13,-18,28,-17,i,42,
CC(=O)NCCCOc1ccc([N+](=O)[O-])cc1Cl,-11,3,10,4,-5,-5,i,-2,
COC(=O)CSc1ccsc1C(=O)O,-12,-5,1,2,-10,-22,i,10,
COC(=O)c1cccc(NC(=O)Nc2ccccc2OC)c1,-24,-7,3,1,-6,/,i,-4,
O=C(Nc1cccc(-c2nnc(-c3ccco3)o2)c1)C(c1ccccc1)c1ccccc1,-32,-11,-9,-11,-10,-21,i,-14,
O=S1(=O)CCOC[C@H](Cc2ccccc2)N1Cc1ccccc1,16,/,1,-5,1,-4,i,/,
Cc1ccc(NC(=O)c2sccc2C)nc1,-40,-4,2,4,29,-22,i,3,
Cc1cccc(C)c1NC(=S)N(CCN1CCCCCC1)Cc1ccco1,18,3,2,3,-1,-4,i,3,
COc1ccc(/C=C/C(=O)OCC(=O)N2CCCCCC2)c(OC)c1,/,/,-3,-1,-8,-12,/,/,
Cn1nc(C(=O)NCCc2ccc(Cl)cc2)c2c1-c1ccccc1S(=O)(=O)C2,9,-2,0,-2,-7,-9,i,4,
CN(C)c1nc(=S)nc(NCc2ccccc2)[nH]1,6,-2,-1,2,-7,/,i,-7,
CC(C)N1CCN(CC#Cc2ccccc2)CC1CCO (stereo unspecified),13,0,1,2,-6,/,i,-2,
Cc1nc(Nc2cccc(O)c2)c2c3c(sc2n1)CCC3,3,-1,0,-4,16,-25,i,-5,
Cc1ccc(NC(=O)/C=N/OCC(=O)NCc2ccccc2Cl)cc1,-22,-2,0,0,3,-13,i,5,

# Structures shown so far that contain a cyano group (2):
SMILES,HIV Env fusion,eIF4H FP inh,MT1-MMP act inh,MT1-MMP act inh RFP,CSC inhib,UUG fidelity,Rce1 inh,PABP polyA inh,others
Cc1ccc(OCc2nc(C#N)c(NCc3ccco3)o2)cc1,-2,0,-3,-4,/,3,i,3,
CCOC(=O)c1sc2nc(SCC#N)n(CC3CCCO3)c(=O)c2c1C (stereo unspecified),21,-6,-13,-18,28,-17,i,42,

# The results go on.
SMILES,HIV Env fusion,eIF4H FP inh,MT1-MMP act inh,MT1-MMP act inh RFP,CSC inhib,UUG fidelity,Rce1 inh,PABP polyA inh,others
COc1ccc(N2CC(C(=O)NCCCN3CCOCC3)CC2=O)cc1 (stereo unspecified),-36,-3,-1,1,1,-11,i,7,
CCCSc1nnc(CSc2ncccn2)n1C,-2,1,-2,-2,-6,/,i,0,
COc1ccc(Br)cc1CNC(=O)C1CCN(S(=O)(=O)N2CCC(C)CC2)CC1,/,4,3,-2,-12,2,i,-9,
COc1ccccc1-n1ccnc(SCC(=O)NCc2ccccc2)c1=O,0,/,3,4,7,-7,i,/,
CN(C)CCc1cc2c(c3c1ccc1ccccc13)OCO2,-35,-9,-1,2,44,2,i,-9,
CCc1ccccc1NS(=O)(=O)c1ccc2[nH]cc(C(=O)NCC3CCCO3)c(=O)c2c1 (stereo unspecified),-46,6,-8,-8,10,-12,i,1,
CC(C)C(N)c1csc(Nc2cc(Oc3ccccc3)ncn2)n1 (stereo unspecified),-3,/,-13,-9,/,-11,/,/,
CCOC(=O)c1[nH]c2cc(OC)c(OC)cc2c1NC(=O)CN1CCN(c2ccc(OC)cc2)C(C)C1 (stereo unspecified),/,4,/,/,3,/,i,7,
O=[N+]([O-])c1ccc(S(=O)(=O)Nc2ccc(-c3csc(-c4ccccc4)n3)cc2)cc1,/,-6,/,/,100*,/,i,6,
NC(=O)c1ccc(CN2CCc3ccccc3C2)cc1,-9,-4,-2,1,6,-12,i,-3,
COc1ccc(CNC(=O)CN(C(=O)c2csnn2)c2cccc3c2CCCC3)cc1,4,-2,1,-1,-1,-7,i,0,
CC(C)CNC(=O)C1CCN(CC2CCCCC2)CC1,1,2,-5,2,-12,-8,i,4,
O=C(CNC(=O)c1cccs1)NCC(=O)OCC(=O)c1ccc([N+](=O)[O-])cc1,-5,5,3,0,-9,/,i,-1,
CN(C)CCCNC(CC(=O)Nc1cccc([N+](=O)[O-])c1)C(=O)O (stereo unspecified),/,-12,-2,3,-3,-11,i,-1,

# Screening results: PubChem, several laboratories
